# NS1 function inh: qHTS Assay for Inhibitors of Influenza NS1 Protein Function; S. cerevisiae slowed by influenza A NS1, growth recovery by OD600; Potency, µM (series often up to 46.1 µM), without a hit: at the highest dose activity, positive = more growth; actives 0.4% (n = 270,000); AID 2326, 2010; also: actives are rising curves; nearly all actives have a fitted effect of over 50% in size
#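 Read-out: OD600 growth recovery of NS1-expressing budding yeast. Cells grown overnight at 30C in -URA glucose medium, washed, resuspended and diluted 1:100 in 2% galactose assay medium, pH 6.0. Same strain lacking NS1 served as positive control.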
# SARS PLpro yeast: qHTS of Yeast-based Assay for SARS-CoV PLP | AID 485353, 2010 | S. cerevisiae expressing SARS-CoV PLpro, growth rescue; control for the full effect not named in the record | actives 0.19% (n = 330,000) | Potency, µM (top dose mostly 32.9 µM), for the others: at the highest dose activity, positive = growth rescue; also: 0% is about no effect; nearly all actives have a fitted effect of over 55% in size; growth read by luminescence after 48 h
# RE007 growth inh: qHTS Assay for Inhibitors of the HIV-1 protein Vpr. S. pombe RE007 Vpr strain, BacTiter-Glo ATP luminescence, 24 h; control for the full effect not named in the record. Potency, µM (top dose mostly 92.2 µM), for the others: at the top dose activity change, negative = less growth. actives 0.21% (n = 360,000). AID 651644, 2012; active = well fitted falling curve with a large enough effect; inconclusive = small, poorly fitted or top-dose-only effect; inactive = no such curve, though single readings can be large or run the other way;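 also: % is scaled to controls: 0 for no effect and ±100 for the full control effect; nearly all actives have a fitted effect of over 50% in size; the assay follows cell death caused by Vpr and the record does not say whether a fall means rescue or toxicity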
#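 Fission yeast RE007 carrying one integrated HIV-1 vpr copy, seeded at OD 0.01 in PMG+AL medium with 23 nL pinned compound. Grown 24 h at 30 degrees; viability read by BacTiter-Glo luminescence after 5 min.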
# Marburg entry inh: qHTS for inhibitors of binding or entry into cells for Marburg Virus; actives 1.8% (n = 300,000); Marburg virus pseudotyped entry inhibition, cell reporter; control for the full effect not named in the record; about a third of the inactives were read at about 46 µM; Potency, µM (highest dose often 37.8 µM), inactives show top-dose activity change, negative = inhibition, usual class: inhibitors; active = well fitted inhibition curve with a large enough effect; inconclusive = small, poorly fitted or top-dose-only effect, or effect the other way; inactive = flat fitted curve, though single readings scatter; tested in HEK293 cells; about a fifth of its hits are not listed in these tables; also: % is scaled to controls: 0 for no effect and ±100 for the full control effect; luciferase read-out
# LASV entry inh: qHTS for Inhibitors of binding or entry into cells for Lassa Virus | Lassa virus pseudotype entry inhibition, cell reporter; control for the full effect not named in the record | Potency, µM (highest dose often 37.9 µM), inactives show at the top dose activity change, negative = inhibition, usual class: inhibitors | actives 1.2% (n = 300,000); active means well fitted inhibition curve with a large enough effect; inconclusive means small, poorly fitted or top-dose-only effect, or effect the other way; inactive means flat fitted curve, though single readings scatter; tested in HEK293 cells; also: % is scaled to controls: 0 for no effect and ±100 for the full control effect; nearly all actives have a fitted effect of over 50% in size; luciferase read-out
# Cruzain inh noDet: qHTS Assay for Promiscuous and Specific Inhibitors of Cruzain (without detergent); purified cruzain, Z-FR-AMC fluorescence, no detergent; actives 2.3% (n = 200,000); Potency, µM, for the others: max response, negative = inhibition, most hits filed as inhibitors; active = well fitted curve in the direction sought with a large enough effect; inconclusive = small, poorly fitted or top-dose-only effect, or another doubt; inactive = no such curve, though single readings can be large; an effect the other way counts as inactive or inconclusive;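 also: plate controls were enzyme without inhibitor for no effect and buffer without enzyme for full effect; nearly all actives have a fitted effect of over 40% in size; top concentration of the series not given in the record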
# Target sequence (P25779 123-467 limits assumed): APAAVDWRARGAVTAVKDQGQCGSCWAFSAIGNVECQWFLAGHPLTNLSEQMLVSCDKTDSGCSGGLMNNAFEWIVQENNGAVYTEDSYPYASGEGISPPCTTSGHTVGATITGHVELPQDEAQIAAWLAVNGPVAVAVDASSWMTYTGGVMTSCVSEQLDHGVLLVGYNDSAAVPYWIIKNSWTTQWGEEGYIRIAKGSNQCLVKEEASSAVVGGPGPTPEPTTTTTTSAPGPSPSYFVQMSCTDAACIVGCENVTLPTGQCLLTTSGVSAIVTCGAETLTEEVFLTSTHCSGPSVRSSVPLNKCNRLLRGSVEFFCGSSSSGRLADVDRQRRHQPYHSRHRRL
#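 Purified cruzain at 1.5 nM, pre-incubated 15 min with compound at room temperature in 100 mM sodium acetate pH 5.5, 5 mM DTT, 0.00005% Triton X-100. Reaction started with 2 uM Z-FR-AMC; AMC fluorescence increase over 60 s gives rate.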
# 2A StopGo: High Throughput Screening for Foot and Mouth Disease Virus Antivirals | human cells with a luciferase reporter of 2A StopGo recoding; control for the full effect not named in the record | Potency, µM (top dose mostly 57.9 µM), without a hit: at the highest dose signal change, negative = less light | actives 1.2% (n = 410,000); active = well fitted falling curve with a large enough effect; inconclusive = small, poorly fitted or top-dose-only effect; inactive = no such curve, though single readings can be large or run the other way; tested in HEK293T cells; also: % is scaled to controls: 0 for no effect and ±100 for the full control effect; nearly all actives have a fitted effect of over 45% in size; luciferase light after 4 h
# Cruzain inh Det: qHTS Assay for Promiscuous and Specific Inhibitors of Cruzain (with detergent). Cruzipain (Trypanosoma cruzi), P25779. purified cruzain, Z-FR-AMC fluorescence, 0.01% Triton. Potency, µM, for the others: max response, negative = inhibition, most hits filed as inhibitors. actives 0.43% (n = 200,000); active = well fitted curve in the direction sought with a large enough effect; inconclusive = small, poorly fitted or top-dose-only effect, or another doubt; inactive = no such curve, though single readings can be large; an effect the other way counts as inactive or inconclusive;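 also: plate controls were neutral wells for no effect and buffer without enzyme for full effect; nearly all actives have a fitted effect of over 40% in size; top concentration of the series not given in the record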
#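 Sodium acetate buffer (100 mM, pH 5.5) containing 5 mM DTT and 0.01% Triton X-100 hosted 1.5 nM cruzain and test compound for 15 min at room temperature. Cleavage of 2 uM Z-FR-AMC was then tracked by fluorescence.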
# * marks the source's active call; other numbers are inactive results; ? = inconclusive; . = not tested or not shown; & = joins results of further samples; [ ] = dose if it differs, or a comment. Unless noted, calls follow the shape of the dose curve; as a rule, active means well fitted rising curve with a large enough effect; inconclusive means small, poorly fitted or top-dose-only effect; inactive means no such curve, though single readings can be large or run the other way. Potency is read from the fitted curve at half-maximal effect. Compounds were not picked by outcome, and some 4.6% of all compounds hit somewhere here.
mol	NS1 function inh	SARS PLpro yeast	RE007 growth inh	Marburg entry inh	LASV entry inh	Cruzain inh noDet	2A StopGo	Cruzain inh Det
CCSC1=NCCN1S(=O)(=O)c1ccc(F)cc1	.	0%	-16%	3%[46.1 µM]	-12%[46.1 µM]	.	-5%	.
COc1ccc(NC2CCCN(C(=O)c3ccc4[nH]c(C)c(C)c4c3)C2)cc1OC (stereo not drawn)	0%	-3%	10%	.	.	.	-17%	.
Nc1nc2sc3c(c2cc1C(=O)N1CCOCC1)CCCC3	-2%	3%	0%	?	3%	12%	22%	-3.7%
COC(=O)c1ccccc1S(=O)(=O)N1CCC(C(=O)OCC(=O)c2ccccc2OC)CC1	.	1%	-3%	-1%	4%	.	-8%	.
CCCNC(=O)C1CCCN(S(=O)(=O)c2ccc3c(c2)CC(C)N3C(=O)C2CC2)C1 (stereo not drawn)	-11%	-1%	-5%	.	.	.	-20%	.
CCOc1ccc(NC(=O)CSc2nc(-c3cccc(Cl)c3)nc3c2Cc2c(CO)cnc(C)c2O3)cc1	.	.	.	.	-9%[46.1 µM]	-10%	-13%	-2.7%
OCC(O)C(O)C(O)C(O)c1nc2ccccc2[nH]1 (stereo not drawn)	.	0%	6%	-23%[46.1 µM]	-20%	.	14%	.
CC(=O)N1c2ccc(S(=O)(=O)N(C)CC(=O)NCc3ccc(C)cc3)cc2CC1C (stereo not drawn)	8%	1%	-13%	20%[46.1 µM]	3%[46.1 µM]	.	-5%	.
C=CCc1ccccc1OCc1nc2ccc(C)cc2[nH]1	.	.	.	-9%[46.1 µM]	-23%[46.1 µM]	9%	-15%	-7.9%
C=C(C)Cn1c(=O)c2c(nc3n2CC(C)CN3Cc2ccccc2)n(C)c1=O (stereo not drawn)	-12%	8%	12%	.	.	.	-22%	.
CCOC(=O)c1cc(-c2ccccc2)sc1NC(=O)CSc1nnc(N)s1	11%	-1%	-4%	?	18%	.	-20%	.
COc1cccc(CN2CC(C(=O)N(C)Cc3nc(C)cs3)CCC2=O)c1 (stereo not drawn)	-2%	-23%	-2%	.	.	.	3%	.
CCOc1ccc(C(=O)Nc2c3c(nn2-c2ccc(F)cc2)CS(=O)C3)cc1 (stereo not drawn)	1%	-6%	14%	-2%[46.1 µM]	10%	0%	1%	0.6%
CCCn1c(NCc2cc(OC)ccc2OC)nc2ccccc21	-2%	10%	-17%	-28%	2%	5%	27%	4.8%
CN1CCN(S(=O)(=O)c2ccc(Cc3ccc(S(=O)(=O)N4CCN(C)CC4)cc3)cc2)CC1	-6%	4%	-12%	?	?	-4%	-29%	0.3%
COc1ccccc1NC(=O)N1CCN(CCc2ccccc2)CC1	-2%	0%	6%	0%[46.1 µM]	17%[46.1 µM]	.	-17%	.
Cc1cc(C)n2nc(N)c(N=Nc3ccc4c(c3)OCO4)c2n1	?	17%	2%	?	15%	?	21%	-14%
COc1cc2[nH]c(=O)n(CCCC(=O)NCc3ccccc3Cl)c(=O)c2cc1OC	.	.	.	-5%[46.1 µM]	-28%[46.1 µM]	5%	1%	-1.8%
COc1ccc(C2Nc3ccccc3C(=O)N2NS(=O)(=O)c2ccc(C)cc2)cc1OC (stereo not drawn)	-20%	4%	-1%	-6%[46.1 µM]	-29%	.	20%	.
CN1C(=O)C(O)(CC(=O)c2ccccc2O)c2cc(Br)ccc21 (stereo not drawn)	-31%&-41%	-10%&-2%	24%	-3%	.	2%	-23%	-5.8%
COc1ccc(-n2ncc(C(=O)Nc3ccc4c(c3)OCO4)c2C2CCN(C(=O)OC(C)(C)C)CC2)cc1	.	.	.	.	-24%[46.1 µM]	-16%	18%	-7.7%
CCN1C(C(=O)Nc2cc(C)on2)=C(O)c2ccccc2S1(=O)=O	-31%	-2%	-6%	.	.	.	-16%	.
O=C(NC1(C(F)(F)F)OCCO1)c1ccc(F)cc1	-1%	0%	7%	10%	7%	.	4%	.
COc1ccccc1CCNC(=O)c1cccn1-c1nnc(N2CCCC2)s1	.	.	.	.	-13%[46.1 µM]	1%	21%	1.8%
CCOC(=O)N1CCN(C(=O)CSc2nnc(-c3cc(OC)cc(OC)c3)o2)CC1	-5%	0%	3%	?	-18%	?	0%	-2.3%
NS(=O)(=O)c1ccc2nc(NC(=O)c3ccc4c(c3)OCCO4)sc2c1	-1%	-5%	0%	.	.	.	10%	.
O=C(CC(c1ccco1)S(=O)(=O)c1ccccc1)c1ccc(F)cc1 (stereo not drawn)	-12%[9.22 µM]	-22%	-7%	4%	7%	-8%	17%	-3.7%
COc1ccc(CCC(=O)Nc2cc(Cl)ccc2N2CCN(C)CC2)cc1	11%	-7%	7%	?	-27%	-3%	-12%	6.5%
O=C(Nc1ccc(NC(=O)c2ccco2)c(Cl)c1)c1ccc2c(c1)OCCO2	-45%	1%	8%	?	?	.	12%	.
CC(=O)CC(=O)Nc1cccc2c1CCCC2	11%	9%	-29%	-26%	?	1%	-2%	1.6%
CCNCC1(c2ccc(OC)c(OC)c2)CCCC1	1%	-7%	12%	13%	27%	-4%	-13%	-1.8%
COc1cc2[nH]c(C(=O)NCCc3ccccc3)cc2c(OC)c1OC	-10%	-2%	17%	0%[46.1 µM]	?	.	5%	.
CCC(CC)C(=O)Nc1ccc(OCc2cc(=O)n3ccsc3n2)cc1	.	.	.	-13%[46.1 µM]	10%[46.1 µM]	0%	-4%	-1.8%
COC(=O)CCCC1=CC2=C(c3ccccc3)C(=O)C(C)(OC(=O)C3CCCC3)C(=O)C2=CN1CCN1CCOCC1 (stereo not drawn)	4%	-4%	-2%	-15%&-15%[14.2 µM]	.	.	1%	.
Cc1cc(=O)oc(C)c1C(=O)Nc1ccc(N(C)C)cc1	-1%	-1%	0%	.	.	.	-8%	.
CC1C(=O)N2CCCc3cc(NC(=O)C(=O)NCCN4CCOCC4)cc1c32 (stereo not drawn)	.	-3%	15%	4%	14%	.	-10%	.
O=C(c1cccc2ccccc12)C1CCCN(C(=O)CCCn2cncn2)C1 (stereo not drawn)	-3%	0%	4%	-3%[46.1 µM]	-4%[46.1 µM]	.	-12%	.
Cc1ccc(NS(=O)(=O)c2cc([N+](=O)[O-])ccc2NNC(=S)Nc2cc(C)ccc2C)c(C)c1	13µM*	6%	-7%	?	14µM*	?	?	-10%
CCOC(=O)c1cccc(NC(=O)CSc2nnnn2C)c1	-1%	-3%	18%	-5%	9%	-4%	51%	6.0%
CCc1nc(C)ccc1OC(=O)C12CC3CC(CC(C3)C1)C2	-31%	-25%	6%	20%	0%	14%	?	-0.9%
COC(=O)c1ccccc1NC(=O)c1cc2c(s1)-c1ccccc1OC2	.	.	.	-4%[46.1 µM]	.	-4%	-20%	-1.9%
O=C(NCC(=O)N1CCCCC1)c1ccc2ccccc2c1	-5%	-6%	-11%	.	.	.	38%[activator]	.
CCc1nc2ccc(C(=O)NCCc3ccco3)cc2nc1CC	-8%	-13%	13%	.	.	.	16%	.
C=CCNC(=O)c1ccc(N(C)S(=O)(=O)c2ccc(OC)cc2)cc1	-18%	-3%	21%	25%	-4%	-2%	5%	0.3%
CCCSc1oc(-c2cccs2)nc1S(=O)(=O)c1ccc(Cl)cc1	.	.	.	2%[46.1 µM]	-1%[46.1 µM]	-20%	5%	-10%
O=C(Oc1cccc2c(OC(=O)N3CCCC3)cccc12)N1CCCC1	1%	?	8%	15%	2%	?	3%	-2.8%
O=S(=O)(c1ccccc1)N1N=C(c2ccc(Br)cc2)CC1c1ccco1 (stereo not drawn)	-8%	-2%	-4%	.	.	.	-10%	.
CCCC1CC(C)(C(=O)Cn2[nH]c(=O)ccc2=O)OC1=O (stereo not drawn)	-3%	-1%	1%	18%	?	-1%	-6%	5.6%
COc1ccc(OC)c(S(=O)(=O)NCc2cn3cccc(C)c3n2)c1	-4%	19%	-12%	20%	6%	4%	.	1.9%
CS(=O)(=O)N(CC(=O)NCc1ccc2c(c1)OCO2)c1cccc(Cl)c1	-1%	-2%	-13%	4%[46.1 µM]	-22%[46.1 µM]	.	-6%	.
CC(=O)Oc1ccc(C(=O)Nc2cccc(C(=O)Nc3ccccc3C(=O)O)c2)cc1	1%	0%	4%	.	.	.	-20%	.
COc1ccc(O)c(C(=O)c2coc(=N)c(C(=O)Nc3ccc(SC(F)F)cc3)c2)c1	.	1%	-10%	?	?	.	?	.
COC(=O)c1c(NC(=O)CS(=O)(=O)c2ccc(C)cc2)sc2c1CCCCC2	.	.	.	.	-13%[46.1 µM]	2.5µM*	1%	-8.3%
O=C(NCCCN1CCN(c2cccc(Cl)c2)CC1)c1sc2ncccc2c1-n1cccc1	.	.	.	.	-12%[46.1 µM]	-6%	?	-5.4%
Cc1ccc(C(C(=O)NC2CCCC2)N2CCCC(C)C2)cc1 (stereo not drawn)	9%	5%	-3%	.	.	-2%	-11%	1.5%
CC(C)c1ccc2nc3sc(C(=O)N4CCc5ccccc5C4)c(N)c3cc2c1	?	-3%	-7%	18%	8%	?	27%	-4.4%
CCC(C(=O)NC(C)(C)C)N(Cc1ccccc1Cl)C(=O)c1snc(C(N)=O)c1N (stereo not drawn)	6%	2%	1%	.	.	.	-13%	.
CC1CC(C)CN(C(=O)CCS(=O)(=O)c2ccc3c(c2)NC(=O)CS3)C1 (stereo not drawn)	6%	9%	-1%	.	.	.	-20%	.
OCCN1CCN(C(=S)Nc2ccccc2)CC1	.	-2%	?	?	13%	.	17%	.
COc1cc(NC(=O)CSc2nnc(C)n3c2cc2oc(C)cc23)cc(OC)c1	.	.	.	.	10%[46.1 µM]	-5%	-2%	0.2%
O=C(CCNC(=O)c1ccc([N+](=O)[O-])cc1)NC1CCCc2ccccc21 (stereo not drawn)	.	-3%	5%	2µM*	?	.	-1%	.
